ClpP mod: qHTS Assay for Activators of ClpP | ATP-dependent Clp protease proteolytic subunit (Bacillus subtilis (strain 168)), P80244 | purified B. subtilis ClpP, FRET peptide cleavage, 20 min | Potency, µM (titrated, usually from 57.5 µM), inactives show at the top dose activity change, negative = active | 340,000 compounds, 1.9% hits; active = well fitted falling curve with a large enough effect; inconclusive = small, poorly fitted or top-dose-only effect; inactive = no such curve, though single readings can be large or run the other way; note: potency is the fitted concentration of half-maximal effect; the source files actives as falling curves though it sought activators and does not explain the sign; nearly all actives have a fitted effect of over 65% in size; many hits overshoot -100%
Target sequence (P80244 whole entry, looked up): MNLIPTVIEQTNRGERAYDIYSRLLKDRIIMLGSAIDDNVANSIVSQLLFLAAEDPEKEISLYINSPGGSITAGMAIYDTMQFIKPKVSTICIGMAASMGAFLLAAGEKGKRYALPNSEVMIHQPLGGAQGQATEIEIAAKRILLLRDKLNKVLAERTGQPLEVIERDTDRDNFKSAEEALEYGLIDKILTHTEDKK
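ClpP 10 microg/mL final, pH 8 Tris/KCl buffer with BSA, glycerol, Tween-20; compound pinned in; FRET-FV substrate; RT 20 min; Ex320/Em430; ΔFRET vs ADEP 5.8 microM, DMSO, no enzyme.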
PINK1 expr mod: modulators of PINK1 expression | 410,000 compounds, 0.2% hits | PINK1 immunofluorescence, high-content cytometry, 24 h | Potency, µM (doses to about 76.6 µM), for inactives: at the highest dose activation (PINK1 increase), most hits filed as activators; active = well fitted activation curve with a large enough effect; inconclusive = small, poorly fitted or top-dose-only effect; inactive = flat fitted curve, though single readings scatter; cell line not stated here;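 note: potency is the fitted concentration of half-maximal effect; % of control where 0% means no effect; nearly all actives have a fitted effect of over 65% in size; a mitochondrial uncoupler was the plate control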
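Compound titrations (5 concentrations, 24 h) on a stable cell line; DMSO and CCCP controls. Endpoint: fixed-cell PINK1 immunofluorescence with mitochondrial, cell and nuclear markers, scanned by microplate cytometer.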
gsp antag: antagonizes gsp, the McCune-Albright syndrome mutation | gsp-mutant cells, cAMP HTRF, 30 min; control for the full effect not named in the record | Potency, µM (highest dose often 76.9 µM), for inactives: at the top dose activity change, negative = inhibition, hits mostly inhibitors | 340,000 compounds, 0.4% hits | AID 624288; active = falling curve of any shape with a large fitted effect; inconclusive = falling curve, mostly with a smaller effect; inactive = flat or rising curve; cell line not stated here;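 note: intracellular cAMP measured with PDE inhibitor Ro 20-1724 present during compound exposure; potency is the fitted concentration of half-maximal effect; % is set by controls: 0 for no effect and ±100 for the full control effect; nearly all actives have a fitted effect of over 65% in size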
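Cells, 2000/well, grown 16–24 h in DMEM 10% FBS with 0.5 mg/ml G418, then compounds plus […] (300 uM addition stock), 30 min at 37C. cAMP read by HTRF (cAMP-d2 and anti-cAMP antibody-K in lysis buffer) after 30 min RT.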
gsp agonist: activates gsp, the McCune-Albright syndrome mutation; gsp mutant cells, cAMP HTRF, 30 min; control for the full effect not named in the record; 340,000 compounds, 0.13% hits; Potency, µM (highest dose often 76.9 µM), for the others: top-dose activation (cAMP increase), actives largely listed as activators; AID 624287; active = well fitted activation curve with a large enough effect; inconclusive = small, poorly fitted or top-dose-only effect, or another doubt; inactive = no such curve, though single readings can be large or run the other way; cell line not stated here;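 note: phosphodiesterase inhibitor Ro 20-1724 added with compounds to block cAMP breakdown; potency is the fitted concentration of half-maximal effect; nearly all actives have a fitted effect of over 60% in size; about a fifth of the inactives were tested at one dose only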
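Cells stably selected in G418 were plated at 2000/well, grown 16-24 hr, then given compounds in DMSO with the PDE inhibitor […] (300 uM solution added) for 30 min at 37C; cAMP was read by HTRF.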
Menin MLL FP FL: inhibitors of human menin-MLL interaction, wild-type MLL peptide; 290,000 tested, under 10 active; Fluorescence polarization, fluorescein-MLL peptide displacement from menin; AID 1766; FP activity change, % at 61.4 µM; inconclusive = falling polarisation curve, or a change in total fluorescence; inactive = total fluorescence flat and polarisation flat or rising; no compound was filed as active; the % refers to the polarisation; negative = inhibition;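 note: % of control where 0% means no effect; inhibitors lower the polarisation; unlabelled MLL peptide was the positive control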
Sfp inh: Sfp phosphopantetheinyl transferase inhibition; Biochemical Sfp PPTase activity, qHTS; Potency, µM, inactives show max response, negative = inhibition, actives largely listed as inhibitors; 310,000 compounds, 3.5% hits; AID 1490; active = well fitted inhibition curve with a large enough effect; inconclusive = small, poorly fitted or top-dose-only effect, or another doubt; inactive = no such curve, though single readings can be large or run the other way;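 note: the enzyme is Sfp with the accession as filed and its product quenches rhodamine fluorescence; potency is the fitted concentration of half-maximal effect; 0% = enzyme reaction without inhibitor and -100% = no enzyme wells; top concentration of the series not given in the record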
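With Hepes-Na pH 7.6 buffer containing 10 mM MgCl2, Sfp (15 nM) modified BHQ-2-YbbR (12.5 uM) using rhodamine-CoA (5 uM). Two reads 30 minutes apart at 525/598 nm yielded each well's rate.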
D2 ag: human D2 receptor agonism in beta-arrestin assay; P14416; DiscoveRx PathHunter D2 beta-arrestin, luminescence, 90 min; 100% = 57 uM dopamine signal; activation, % (no concentration beside the values); 360,000 compounds, 0.084% hits; AID 624465; in the data active = activation above about 40%; inconclusive = about 15% to 40%; inactive = below about 15%; note: compound concentration not given in the record; the text of the record calls up to 30% inactive
Target sequence (P14416 whole entry, looked up): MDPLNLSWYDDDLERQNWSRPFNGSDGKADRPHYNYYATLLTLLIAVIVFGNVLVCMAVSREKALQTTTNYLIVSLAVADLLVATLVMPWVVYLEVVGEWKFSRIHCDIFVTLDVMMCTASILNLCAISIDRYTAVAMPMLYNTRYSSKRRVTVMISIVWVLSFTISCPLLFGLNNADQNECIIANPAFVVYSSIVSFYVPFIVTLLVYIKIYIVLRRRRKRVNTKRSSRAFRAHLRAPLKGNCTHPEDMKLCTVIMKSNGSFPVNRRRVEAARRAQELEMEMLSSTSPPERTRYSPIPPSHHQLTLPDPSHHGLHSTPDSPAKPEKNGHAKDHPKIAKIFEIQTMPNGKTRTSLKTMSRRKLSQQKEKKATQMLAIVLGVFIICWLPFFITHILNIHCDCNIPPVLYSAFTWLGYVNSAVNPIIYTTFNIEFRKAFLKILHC
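Agonist mode: compounds alone added to overnight-plated D2 PathHunter cells for 90 min at 37 C, with 57 uM final dopamine (EC100) defining full response. Beta-arrestin recruitment detected by chemiluminescent reagent, read after 1 h at ambient temperature.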
Active calls of the source: *; ? = inconclusive; · = not tested or not shown; [ ] = remark or other dose.

Each structure is followed by: gsp agonist | Menin MLL FP FL | Sfp inh | ClpP mod | gsp antag | D2 ag | PINK1 expr mod
- COCCCNC(=O)CC(NS(=O)(=O)c1ccc(OC)cc1)c1ccc(OC)cc1 (configuration not stated)
    -21% | 1.2 | 0% | 22µM* | 9% | -3.9 | 0.0%
- O=C(O)CCc1ccc(-c2ccccc2)n1NC(=O)c1cccs1
    -13% | 3.7 | 8% | · | -8% | -0.2 | -1.1%
- O=C(NOC(=O)c1ccccc1Cl)c1cccs1
    3% | -3.6 | -11% | -2.3% | -1% | 2.3 | ·
- CN(C)C(CNC(=O)C1CC(=O)N(Cc2ccccc2)C1)c1ccccc1 (configuration not stated)
    -2%[15.4 µM] | · | · | -27% | 5% | -5.0 | 0.9%
- O=C(c1ccc(F)cc1)C1CCN(C(=O)Nc2ccc(F)cc2F)CC1
    4% | 4.6 | 20% | · | 2% | -2.8 | 1.3%
- COc1ccc(NC(=O)CC(C(=O)O)N2CCCCC2)cc1 (configuration not stated)
    16% | 0.5 | 4% | -1.2% | 7% | -1.5 | -2.6%
- O=S(Cc1ccccc1)c1ccccc1 (configuration not stated)
    -12% | · | · | -29% | 8% | 0.3 | -2.5%
- Cc1ccc(-c2csc(SCC(=O)c3c(N)n(C4CC4)c(=O)[nH]c3=O)n2)cc1
    -45%[inhibitor] | · | · | 1.1% | 2% | -3.1 | -1.0%
- COc1cc(OC)cc(C(=O)NC2CC3CCC(C2)N3Cc2ccco2)c1 (configuration not stated)
    5%[15.4 µM] | 2.3 | 10% | -1.6% | 7% | -3.2 | -1.1%
- Cc1ccc(SCC2=NNC(=O)C2)cc1
    ? | 4.1 | 13% | -1.0% | 2% | -0.7 | 1.7%
- COc1ccc(NC(=O)/C(=C\c2ccncc2)NC(=O)c2ccccc2)cc1
    0%[15.4 µM] | -0.3 | 27% | · | · | -0.9 | -0.9%
- CC1=C(C(=O)OCCC(C)C)C(c2ccc3c(c2)OCO3)NC(=O)N1 (configuration not stated)
    -29% | 4.0 | 16% | 0.3% | -13% | 2.3 | -0.8%
- CN(C)c1ccc(N2C(=NC(=O)CC3CCCCC3)SC3CS(=O)(=O)CC32)cc1 (configuration not stated)
    15% | · | 4% | -1.0% | -8% | -4.0 | -0.1%
- CCOC(=O)c1cc(C#N)c(Nc2ccccc2OC)nc1C(F)(F)F
    4%[15.4 µM] | -2.3 | 15% | -1.4% | 2% | -6.8 | 12%
- CC(NCc1ccccc1O)c1ccccc1 (configuration not stated)
    ? | 0.7 | 9% | 1.9% | -1% | -18 | 1.4%
- Cn1c(=O)cc(C(=O)N/N=C/c2ccc(Cl)cc2)[nH]c1=O
    ? | -0.5 | 13% | · | -16% | 7.8 | 1.8%
- COc1ccc(CN2CC(C(=O)NCCCOC(C)C)CC2=O)cc1 (configuration not stated)
    -15% | -0.8 | 17% | 0.4% | -8% | -3.1 | 0.6%
- Nc1cc(C(=O)c2ccccc2)ccc1[N+](=O)[O-]
    -51%[inhibitor] | -0.7 | 13% | · | -3% | -0.4 | -0.7%
- COc1ccc(/C=C/C(=O)O)cc1COc1cccc(C)c1
    28% | 1.0 | 13% | -3.0% | -9% | 2.0 | 1.5%
- CCOC(=O)N1CCC(N2C(=O)c3ccc(C(=O)NCc4ccco4)cc3C2=O)CC1
    -16% | 0.1 | -21% | -2.5% | -7% | -6.7 | 1.5%

(next part)
Each structure is followed by: gsp agonist | Menin MLL FP FL | Sfp inh | ClpP mod | gsp antag | D2 ag | PINK1 expr mod
- O=C(CN1C(=O)NC2(CCCCC2)C1=O)Nc1cc(C(F)(F)F)ccc1N1CCOCC1
    -14%[15.4 µM] | · | · | -2.1% | 8% | 3.4 | 2.0%
- CC(=O)Nc1cnn(Cc2ccc(Br)cc2)c1
    2% | -0.9 | 2% | 1.6% | -6% | -0.1 | -4.0%[38.3 µM]
- Cc1ccccc1COCCN1CCN(S(=O)(=O)c2ccccc2)CCC1=O
    ? | 3.2 | 6% | -0.1% | -2% | -1.8 | -1.4%
- Cc1cc(C)c(C(N)=O)c(SCC(=O)c2cc(C)n(-c3cc(C)on3)c2C)n1
    1% | · | · | -1.1% | 7% | 9.8 | 8.4%
- CCOC(=O)CSc1nc2c(c(=O)[nH]c(=O)n2C)n1C/C=C(/C)Cl
    -50%[inhibitor] | -0.4 | 50µM* | -0.5% | 9% | -1.5 | ?
- CCOC(=O)N1CCN(c2ncnc3scc(-c4ccccc4)c23)CC1
    ? | 4.7 | 2% | · | ? | 10 | 3.8%
- CC1Cc2cc(/C(O)=C3/C(=O)C(=O)N(CCCn4ccnc4)C3c3cccc([N+](=O)[O-])c3)ccc2O1 (configuration not stated)
    14% | -0.3 | 15% | -2.8% | 7% | -2.1 | -0.2%
- Cc1ccc(N=C2NC(=O)C(CO)(CO)S2)cc1
    17%[15.4 µM] | -0.8 | 10% | -0.1% | -5% | 3.6 | -1.6%
- CC(C)CCN(CCC(C)C)C(=O)Cc1c(O)c2ccccc2[nH]c1=O
    6% | -0.3 | 5% | -12% | 5% | -3.8 | 8.2%
- Cc1nnc(NC(=O)C2CCN(S(=O)(=O)c3ccc(F)c(Cl)c3)CC2)o1
    -8%[15.4 µM] | · | · | -1.6% | 4% | 4.0 | -0.5%
- COc1ccccc1NS(=O)(=O)c1cccc(C(=O)NCC(c2cccs2)N(C)C)c1 (configuration not stated)
    -11% | · | · | 1.2% | 1% | -3.3 | -1.0%
- COc1cc(C(=O)Nc2cccc(C)c2C)c(Br)c(OC)c1OC
    -33%[inhibitor] | 0.2 | 13% | 0.2% | -1% | -3.5 | -0.2%
- CCOC(=O)C1=C(CN2CCN(C(=O)c3ccco3)CC2)NC(=O)NC1c1ccc(Cl)cc1 (configuration not stated)
    -8% | 2.7 | -1% | · | ? | 0.7 | 1.2%
- CCNc1nc(NCC)nc(OCCOC(=O)c2ccccc2)n1
    21% | -2.5 | 3% | -1.0% | 8% | -1.6 | 4.9%[38.3 µM]
- CCCCn1nnc(NC(=O)c2ccco2)n1
    -13% | -2.4 | 8% | -25% | 3% | -1.3 | 6.8%
- COc1ccc(OC)c(NC(=O)CSC2=C(C#N)C(c3ccco3)C3=C(CCCC3=O)N2)c1 (configuration not stated)
    7%[15.4 µM] | -0.3 | -18% | -2.7% | -13% | -4.5 | -0.4%
- COc1ccc(CNC(=O)c2ccc(CS(=O)Cc3ccc(Cl)cc3)o2)cc1 (configuration not stated)
    -10% | · | 2% | 0.2% | 6% | -0.8 | -0.6%
- C=CCN=C1SC(CC)C(=O)N1S(=O)(=O)c1ccc(C)cc1 (configuration not stated)
    5% | 12 | -19% | 1.3% | 3% | -0.2 | -1.6%
- COCCCNc1nc2ccccc2nc1NS(=O)(=O)c1ccc(C)cc1C
    ? | 7.8 | 4% | 3.3% | -2% | -1.8 | -1.8%
- CCN1CCN(C(c2cccs2)C(C)NC(=O)NC2CCCCC2)CC1 (configuration not stated)
    ? | 1.5 | 19% | -1.2% | 10% | 0.4 | 4.0%

Other records follow:
Each structure is followed by: gsp agonist | Menin MLL FP FL | Sfp inh | ClpP mod | gsp antag | D2 ag | PINK1 expr mod
- CCN(CC(=O)Nc1c(F)cccc1F)C(=O)Cc1ccc(OC)c(S(=O)(=O)N2CCOCC2)c1
    20% | · | · | 0.7% | 3% | -7.9 | -2.1%
- Cc1ccc(NC2=C(Cl)C(=O)N(C3CCCCC3)C2=O)cc1
    -2% | 5.2 | 0% | -2.5% | ? | 1.2 | 10%
- S=C(Nc1cccnc1)Nc1cccc2cnccc12
    3%[15.4 µM] | -6.3 | 11µM* | · | 4% | 0.0 | 2.4%
- O=C(CN(C(=O)Cn1nnc(-c2cccs2)n1)c1ccc2c(c1)OCCO2)NC1CCCCC1
    1% | 3.0 | 8% | 0.9% | -6% | -0.2 | -2.2%[38.3 µM]
- Cc1ccccc1NC(=O)C1C2/C=C\CCCCC21 (configuration not stated)
    9% | 5.6 | 5% | 1.3% | 9% | 7.8 | 3.9%
- Cc1csc(SCC(=O)c2cc(C)n(Cc3cccs3)c2C)n1
    -28% | -0.1 | -6% | 1.0% | ? | 1.5 | -1.1%
- Nc1cc(N)nc(SCC(=O)c2ccccc2)n1
    -13% | 0.9 | 9% | -5.3% | 3% | 7.5 | -4.7%
- Oc1cccc2ccc(/C=C/c3ccc(Br)s3)nc12
    6% | 0.1 | 9% | · | 6% | -2.6 | 0.7%
- O=C(N/N=C/c1ccc(Br)s1)Nc1ccccc1
    -10% | 3.1 | 12% | -18% | -15% | 5.6 | 2.7%
- C=CCc1ccccc1OCC(=O)O
    17% | 5.8 | -21% | -1.9% | 5% | -6.9 | 0.2%
- Cc1ccc(S(=O)(=O)N2CCC(=O)N(CCOCc3ccc(Cl)cc3)CC2)cc1
    -26% | -2.5 | -1% | -0.5% | -11% | -5.5 | -0.8%
- CCCN(CCC)Cc1c(C(=O)N/N=C/c2ccoc2)nnn1-c1nonc1N
    -1%[15.4 µM] | -6.2 | 5% | · | -20% | -1.3 | 0.9%
- O=C(N/N=C/c1cccc([N+](=O)[O-])c1O)c1cccs1
    -30%[inhibitor] | -0.6 | 22% | -0.2% | -18% | -6.4 | 3.0%
- Cc1cc(S(=O)(=O)Nc2ccc(C(=O)NC3CC3)cc2)ccc1F
    -16% | · | · | -1.1% | · | 0.6 | 0.6%
- COc1ccc(-c2c(C(F)(F)F)[nH]n3c(=O)cc(-c4ccccc4)nc23)cc1
    4%[15.4 µM] | 3.4 | 2% | · | ? | 2.6 | ?
- Cn1c(C(=O)NC2CCCCC2)cc2sccc21
    -52%[inhibitor] | 4.1 | 7% | 1.6% | 10% | -1.9 | ?

Two entries drawn at random from the list so far, as already listed:
Each structure is followed by: gsp agonist | Menin MLL FP FL | Sfp inh | ClpP mod | gsp antag | D2 ag | PINK1 expr mod
- Cc1csc(SCC(=O)c2cc(C)n(Cc3cccs3)c2C)n1
    -28% | -0.1 | -6% | 1.0% | ? | 1.5 | -1.1%
- Cc1ccc(-c2csc(SCC(=O)c3c(N)n(C4CC4)c(=O)[nH]c3=O)n2)cc1
    -45%[inhibitor] | · | · | 1.1% | 2% | -3.1 | -1.0%

Screening results as filed in PubChem BioAssay.
